# NPYLR7 agonist = agonists of mosquito NPYLR7 receptor, primary screen, cell-based, Aedes aegypti, calcium fluorescence, mosquito biting behavior. 270,000 tested, 0.15% active. HEK293T NPYLR7/Galpha15, GCaMP6s calcium fluorescence. activation, % at 10 µM. AID 1259423, 2018; in the data active means activation above about 40%;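 further: 0% = vehicle and 100% = reference agonist at the receptor; some compounds past the cut are filed as inactive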
# NPYLR7 agonist max-min = recorded beside NPYLR7 agonist, whose call it bears; activation, %; measured here: Max-Min RFU normalised activation; some inactives read as strong as hits;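 span of the calcium signal over five minutes; 0% = vehicle and 100% = native peptide agonist; compound fluorescence can raise it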
# An asterisk follows results filed as active; & = joins results of further samples. The list is partial; rates above refer to the full screens.
SMILES,NPYLR7 agonist,NPYLR7 agonist max-min
CCC(C)N(CC(=O)N(CCc1ccccc1)Cc1ccco1)C(=O)C(C)(C)C (configuration not stated),-3.6,4.4
C=CCN(Cc1ccccc1C)Cc1cccn1Cc1cccc(C(F)(F)F)c1,20.6,21.9
Cc1nnsc1CN1CCCN(CC2CC2)C(C(C)C)C1 (configuration not stated),2.4,3.4
CCn1nc(C)c(CN(CCOC)c2ncnc3oc(C)nc23)c1C,12.3,-5.4
CSCC(=O)Nc1c(C#N)c(C)c(C)n1-c1ccc(F)cc1,2.9,1.2
Cc1c(C)c2c(c(C)c1O)CCC(C)(C(=O)N1CCn3cncc3C1)O2 (configuration not stated),19.4,7.2
O=C1OC(c2ccc(Cl)cc2Cl)=N/C1=C\C=C\c1ccccc1,-1.1,-8.3
COc1ccc2c(=O)c(Oc3ccccc3Br)c(C(F)(F)F)oc2c1,10.7,5.9
CCCOC1CCCN(C(=O)CCC(=O)c2cccs2)CC1 (configuration not stated),1.6,0.0
C=CCSc1nc(C)c2cc(C)cc(C)c2n1,16.2,16.8
O=C(CC(c1ccccc1)c1ccccc1)N1CCN(c2ncnc3c2nnn3-c2ccccc2)CC1,-12.8,-18.4
Cc1cc(O)c(-c2ccnc3nc(N4CCc5ccccc5C4)[nH]c(=O)c23)c(=O)o1,0.6,27.8
COc1ccc(C(=O)/C=C/C2=NN(c3ccccc3)C(c3ccccc3)C2)cc1 (configuration not stated),11.6,6.0
CC(NC(=O)C1CC1c1ccccc1Br)C1CC1 (configuration not stated),-7.1,-6.4
CCOc1ccc2nc(S(=O)(=O)NC(=O)C3(C)CCN3C(=O)c3ccco3)sc2c1 (configuration not stated),-1.5,-6.7
CC(C)c1ccccc1OC1CC2CCC(C1)N2C(=O)c1ccc(CN2CCC(Cc3ccccc3)CC2)cc1 (configuration not stated),7.7,-1.0
COc1ccc(C2NC(=S)NC(O)(C(F)(F)F)C2C(=O)c2cccs2)cc1 (configuration not stated),-2.5,-4.0
CCCCCn1c(=O)c2c(nc3n(CC(=O)OCC)c(C)c(C)n23)n(C)c1=O,1.6,-0.7
CS(=O)(=O)CCn1ccc(N)n1,5.0,-2.6
CCOC(=O)N1CCN(C(=O)COC(=O)C2=NNC(=O)CC2)CC1,2.2,2.9

# As entered above:
# In NPYLR7 agonist max-min, Cc1c(C)c2c(c(C)c1O)CCC(C)(C(=O)N1CCn3cncc3C1)O2 (configuration not stated) shows 7.2
# In NPYLR7 agonist, O=C1OC(c2ccc(Cl)cc2Cl)=N/C1=C\C=C\c1ccccc1 shows -1.1
# In NPYLR7 agonist, CSCC(=O)Nc1c(C#N)c(C)c(C)n1-c1ccc(F)cc1 shows 2.9
# In NPYLR7 agonist max-min, Cc1nnsc1CN1CCCN(CC2CC2)C(C(C)C)C1 (configuration not stated) shows 3.4
# In NPYLR7 agonist max-min, CS(=O)(=O)CCn1ccc(N)n1 shows -2.6

# (listing goes on)
SMILES,NPYLR7 agonist,NPYLR7 agonist max-min
COC(=O)c1cccc(NC(=O)N2CCc3ccccc3C2c2ccccc2Cl)c1 (configuration not stated),9.2,4.9
Cc1cc(C)cc(NC(=O)CC(=O)NCc2ccc3c(c2)CC(C)O3)c1 (configuration not stated),4.4,-1.2
CC1=NC2=C(C(=O)CC(C)(C)C2)C(c2ccccc2I)C1C#N (configuration not stated),13.4,11.6
CCc1cnc(/C=C/c2ccccc2)nc1,3.3,1.9
CCc1nc2n(n1)C(=O)C(C(c1ccc(Cl)cc1Cl)N1CCC(C(N)=O)CC1)S2 (configuration not stated),-4.8,-10.2
CCOc1ccc(NC(=O)CSc2ncnc3sc(C)c(C)c23)cc1,-3.1,-7.1
Cc1ccsc1C(=O)NCCN1Cc2ccccc2OC(c2ccccc2F)C1 (configuration not stated),1.8,0.7
O=C(NCC1CC1)c1ccc2sc([C@@H]3O[C@H](CO)[C@H](O)[C@H](O)[C@H]3O)nc2c1,-2.0,-4.0
O=C(NCCn1nnc2ccccc21)c1cc(C2CC2)[nH]n1,6.8,4.3
COC(=O)Cn1c(O)c(N=NC(=O)CNC(=O)c2ccccc2OC)c2ccccc21,1.5,8.7
Cc1cc(C(=O)NC(C)C)ccc1NCc1cc(=O)n(C)c(=O)n1C,-2.5,30.2
NC(=O)CSCCC(=O)Nc1ccc(Br)c(C(F)(F)F)c1,5.8,4.2
CSc1nc(C(=O)N2CCCC(c3nc(-c4cccnc4)ncc3-c3ccccc3F)C2)cs1 (configuration not stated),21.5,12.6
COc1cc(SC)ccc1C(=O)Nc1ccc(N2CCOCC2)cc1,9.2,1.5
C=CCSC(C)C(=O)N1CCN(C)C2(CCN(C)CC2)C1 (configuration not stated),5.8,-10.3
CN(C)c1cc(C(=O)N2CCCc3cc(Cl)cc(F)c32)ccn1,1.2,0.2
Cc1nsc(NC(=O)C2(C)CCN2C(C)C)n1 (configuration not stated),-4.4,-4.8
COc1cccc(CCNC(=O)CNC(=O)C2CC2(c2ccccc2)c2ccccc2)c1 (configuration not stated),4.2,-1.4
Cc1ccc(C)c(NC(=O)C(C)N(C)Cc2ccsc2)c1 (configuration not stated),0.6,-0.7
CCC1c2ccsc2CCN1C(=O)CNC(=O)c1ccc(Cl)c(Cl)c1 (configuration not stated),4.2,1.6
CC(C)(O)C#Cc1ccc(C2NCCS2)cc1 (configuration not stated),-0.3,-2.3
C=CCOc1ccccc1CN1C(=O)C2(SC(NC(C)=O)=NN2C(C)=O)c2cccc(C)c21 (configuration not stated),5.3,2.5
OCCN1CCN(c2cc(-c3ccc(O)cc3)nc3ccnn23)CC1,0.0,-5.7
COC(=O)c1ccc(N2C(=O)C3C4C=CC(O4)C3C2=O)cc1 (configuration not stated),-10.5,-14.0
CC(=O)O[C@@H]1CC(C)=C2[C@H]1[C@H](C)CC[C@H]2/C=C(\C)C(=O)O,-5.7,-11.7
CCOC(=O)c1ccc(NC(=O)c2cc(S(=O)(=O)N(CC)CC)ccc2Cl)cc1,-3.3,-2.9
CC(=O)N1CCc2c(sc(NC(=O)CCS(=O)(=O)c3ccc(F)cc3)c2C#N)C1,9.4,1.9
COCCCNC(=O)C(NC(=O)C1CC1)C1CCN(C(=O)c2ccco2)CC1 (configuration not stated),-9.0,3.2
CC1C(=O)N(c2ccc3c(c2)OCO3)CCN1C(=O)c1cccc(Br)c1 (configuration not stated),26.4,16.2
Cc1cc(C)n(CCCN(C)C(=O)C2CCC(=O)N(CCN3CCOCC3)C2)n1 (configuration not stated),4.0,0.5
O=C1CCCN1C(=O)COc1ccc(Br)cc1Br,13.4,4.4
CCc1nnc2n1N(C(C)=O)C(c1ccccc1)=C(C(C)=O)S2,2.1,-3.0
CCOc1ccc(NC(=O)N(CC(=O)Nc2cc(C(C)(C)C)nn2-c2ccccc2Cl)Cc2ccccc2)cc1,2.4,2.7
Cc1cccc(OCC(=O)N2CCc3c(sc4ncnc(N)c34)C2)c1C,0.2,-0.6
CC(=O)c1ccc(N2CCN(C(=O)Cn3c(-c4ccc(Cl)cc4)n[nH]c3=S)CC2)c(F)c1,1.9,-0.1
O=S1(=O)CCN2C(c3ccccc3Cl)=CSC2=N1,-8.9,-14.8
OCCN(Cc1nc2ccccc2o1)c1ccc(Br)cc1,6.8,2.9
Cc1ccccc1-n1c(Cc2ccccc2)nnc1SCC(=O)NCC1CCCO1 (configuration not stated),-3.4,1.3
CCCc1nc(C)c(C(=O)Nc2ccnc(Sc3ccccn3)c2)s1,11.9,6.0
O[C@@H]1CN(c2ncnc3nc[nH]c23)CC[C@H]1N1CCN(c2ccccc2F)CC1,2.9,1.1
CCN(C1CC1)S(=O)(=O)c1ccc(C)c(F)c1,-0.6,-4.0
COc1ccc(N2CCN(C(=O)CC3CSc4nc5c(c(=O)n43)CCCC5)CC2)cc1 (configuration not stated),-2.7,-4.5
COc1cc(C2c3c(n(C)c(=O)n(C)c3=O)N=C3COC(=O)C32)cc(OC)c1OC (configuration not stated),1.0,0.3
Cc1noc(C)c1C1CCCN1C(=O)c1coc2c1C(=O)CCC2 (configuration not stated),10.8,3.8
CCc1c(C(=O)N2CCOCC2)c(CC(C)C)nn1-c1ccc(Cl)cc1,-1.1,5.9
Cc1noc(C)c1CCC(=O)NC1CC(=O)N(C2CCCCCC2)C1 (configuration not stated),15.0,5.7
O[C@@H]1CN(Cc2ccc3c(c2)OCCO3)CC[C@H]1N1CCN(c2ccccn2)CC1,4.5,1.2
O=C(Nc1ccc(-c2nc3cc(Cl)ccc3o2)cc1)c1ccc(Cl)c([N+](=O)[O-])c1,-1.2,6.8
O=C(NC(c1ccccc1)c1ccsc1)C1CCN(Cc2ccc(Oc3ccccc3)cc2)CC1 (configuration not stated),7.7,0.7
O=C(CN1C(=O)c2ccc([N+](=O)[O-])cc2C1=O)Nc1cccc(O)c1,1.5,11.2
CN(C)c1ccc(NC(=O)c2ccccc2Cl)cc1CN(Cc1ccco1)C(=O)c1ccc(F)cc1,6.0,16.0
CCS(=O)(=O)NCCc1csc2nc(-c3ccccc3C)nn12,1.2,-1.6
Cn1c(CCNC(=O)Cc2ccccc2F)nc2cc(F)ccc21,-5.1,-7.6
O=C(CN1CCCC1)N1N=C(c2ccc(F)cc2)CC1c1ccccc1Cl (configuration not stated),19.9,10.7
CCN(CC(=O)Nc1ccc(NC(C)=O)cc1)C(=O)C1=COCCO1,-1.6,-1.6
CCc1ccc(NC2CC(=O)N(CCCOC)C2=O)cc1 (configuration not stated),3.7,7.6
CCN1CCC(N(C)Cc2cnc(C)cn2)C(C)C1 (configuration not stated),5.5,4.3
Nc1nc(CCNC(=O)c2cccc(CC3CCNCC3)c2)cs1,2.7,-4.3
Cc1cccc(Cc2c(C)nc(C)nc2N2CCN(C(=O)C3CCC3)CC2)c1,15.9,20.4
Cc1cn2c(nc3c2c(=O)n(Cc2ccccc2Cl)c(=O)n3C)o1,-0.8,6.0
# Further compounds:
SMILES,NPYLR7 agonist,NPYLR7 agonist max-min
COc1cc(OC)cc(C(=O)Nc2cc(C(N)=O)ccc2N2CCCC2)c1,18.4,6.4
Cc1cccc(OC(F)F)c1NC(=O)C1(C)CCN1C(=O)CC(c1ccccc1)c1ccccc1 (configuration not stated),17.2,14.8
Cc1ccc(C(=O)Nc2ccc(N3CCC(C)CC3)c(C(=O)NCc3ccccc3)c2)cc1[N+](=O)[O-],-1.2,5.0
CC(C)C1CN(Cc2cnc[nH]2)CCCN1CC1CC1 (configuration not stated),-4.1,-11.7
COc1ccc(N2C3=[N+](CC2(O)c2ccc(OC)cc2)c2ccccc2CC3)cc1 (configuration not stated),0.3&-2.1,-0.3&-2.7
CC1SC(=NC(=O)c2ccco2)NC1=O (configuration not stated),-1.5,4.3
CC(C)CN(CCc1nc(-c2ccc([N+](=O)[O-])cc2)no1)CC(O)COC(C)(C)C (configuration not stated),3.0,4.3
Cc1nc(N2CCOCC2)sc1C(=O)NNS(=O)(=O)c1ccccc1C(F)(F)F,-0.3,-0.9
CCc1ccc(CN2CCC3(CCC(=O)N(C)CC3)CC2)nc1,-1.4,-2.5
CC(C)COC(=O)C(C)Nc1n[nH]c(=O)[nH]c1=O (configuration not stated),-0.8,-4.0
Cc1nnc(CN(C)Cc2cn(Cc3ccccc3)nc2-c2cc3ccccc3o2)o1,1.5&-6.7,-4.6&-9.7
Cc1nc(SCCNC(=O)c2nc[nH]c2C)n[nH]1,-2.9,37.3
CN1CC2(CCCN(C(=O)c3cnc4cccnn34)C2)OC1=O (configuration not stated),6.6,5.3
Cc1cccc(C(=O)N(C)CCCN2c3ccccc3CCc3ccccc32)c1,-7.6,-13.0
CN(CC(=O)NCc1ccc(Br)cc1F)C1CC1,-2.8,-5.4
Cc1cccc(-n2c(=O)c3c(n4cnnc24)-c2ccccc2CC32CCCCC2)c1,1.9,-5.3
CC(C)C(NC(=O)c1ccc(F)cc1)C(=O)Nc1ccc(Cn2ccccc2=O)cc1 (configuration not stated),2.6,0.1
COc1ccc(NC(=O)c2cc(-c3cc(C)sc3C)nc3c2cnn3C(C)C)cc1OC,2.9,-2.8
CCc1[nH]n(-c2cccc(Cl)c2)c(=O)c1C1=C([n+]2cccc(C)c2)C(=O)N(CC(C)C)C1=O,4.3,2.2
O=S(=O)(Nc1ccc2cn[nH]c2c1)c1ccc2c(c1)CCC2,-1.0,1.8

# Part of the list above in order of molar mass, ascending.
SMILES,NPYLR7 agonist,NPYLR7 agonist max-min
CCN(C1CC1)S(=O)(=O)c1ccc(C)c(F)c1,-0.6,-4.0
O=C(CN1C(=O)c2ccc([N+](=O)[O-])cc2C1=O)Nc1cccc(O)c1,1.5,11.2
CCC1c2ccsc2CCN1C(=O)CNC(=O)c1ccc(Cl)c(Cl)c1 (configuration not stated),4.2,1.6
Cc1cc(C)n(CCCN(C)C(=O)C2CCC(=O)N(CCN3CCOCC3)C2)n1 (configuration not stated),4.0,0.5
COc1ccc(N2CCN(C(=O)CC3CSc4nc5c(c(=O)n43)CCCC5)CC2)cc1 (configuration not stated),-2.7,-4.5
C=CCOc1ccccc1CN1C(=O)C2(SC(NC(C)=O)=NN2C(C)=O)c2cccc(C)c21 (configuration not stated),5.3,2.5

# Remaining list, next part
SMILES,NPYLR7 agonist,NPYLR7 agonist max-min
COc1cccc(CN(CC2CC(c3ccccc3)=NO2)CC(O)c2ccccc2)c1 (configuration not stated),-2.5,2.5
COc1cc2c(cc1OC)C(c1ccc(F)cc1)N(C(=O)c1cccs1)CC2 (configuration not stated),-5.1,3.7
O=C(NC1CC1)c1cc2n(n1)CCN(C(=O)CSc1ccccn1)C2,6.8,2.3
COCCCN(Cc1ccc(OC)cc1)CC(O)COc1ccc(Cl)cc1 (configuration not stated),17.7,13.4
CC(C(=O)O)c1ccc(N2Cc3ccccc3C2=O)cc1 (configuration not stated),-6.8&-2.5,-14.6&-5.8
CCOc1ccc(CN2CCCn3cccc3C2c2ccccc2[N+](=O)[O-])cc1 (configuration not stated),22.6,29.5
COc1ccc(C)cc1NC(=O)Cn1nc(Nc2ccccc2)c(S(=O)(=O)c2ccccc2)c1N,-1.9,-9.3
CCCCCc1ccc(C(=O)Nc2ccc(-n3nc(OC(C)C)nc3-c3cccc(F)c3)cc2)cc1,0.7,-5.4
OC1C2C3CC4C5C3C1C5C1(OCCO1)C42 (configuration not stated),-2.0,-4.5
COc1ccc(C2c3ccsc3CCN2CC(=O)N2CCN(S(=O)(=O)c3c(C)cc(C)cc3C)C(C)C2)cc1 (configuration not stated),12.0,-0.4
